# Compound activity (PubChem BioAssay)
# ClpP mod: qHTS Assay for Activators of ClpP | AID 651965, 2013 | purified B. subtilis ClpP, FRET peptide cleavage, 20 min | 340,000 tested, 1.9% active | Potency, µM (highest dose often 57.5 µM), inactives show at the highest dose activity change, negative = active; active = well fitted falling curve with a large enough effect; inconclusive = small, poorly fitted or top-dose-only effect; inactive = no such curve, though single readings can be large or run the other way; further: potency means the concentration at half of the fitted maximal effect; the source files actives as falling curves though it sought activators and does not explain the sign; nearly all actives have a fitted effect of over 65% in size; many hits overshoot -100%
# Target sequence (P80244 whole entry, looked up): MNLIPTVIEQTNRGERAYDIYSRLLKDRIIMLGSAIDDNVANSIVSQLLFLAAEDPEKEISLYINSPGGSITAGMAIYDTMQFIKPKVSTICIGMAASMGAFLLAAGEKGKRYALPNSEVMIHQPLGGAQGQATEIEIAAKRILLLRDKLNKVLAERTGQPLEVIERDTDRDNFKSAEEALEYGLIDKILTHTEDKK
#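 Buffer: 100 mM Tris/HCl pH8, 100 mM KCl, 0.05% low protease BSA, 2.5% glycerol, 0.01% Tween-20. ClpP 10 microg/mL final; 20 min RT; delta FRET normalized to ADEP and DMSO controls.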
# gsp antagonist: qHTS for Antagonists of gsp, the Etiologic Mutation Responsible for Fibrous Dysplasia/McCune-Albright Syndrome: qHTS; 340,000 tested, 0.4% active; gsp-mutant cells, cAMP HTRF, 30 min; control for the full effect not named in the record; Potency, µM (series often up to 76.9 µM), for inactives: top-dose activity change, negative = inhibition, actives largely listed as inhibitors; AID 624288, 2012; active = falling curve of any shape with a large fitted effect; inconclusive = falling curve, mostly with a smaller effect; inactive = flat or rising curve; cell line not stated here;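 further: intracellular cAMP measured with PDE inhibitor Ro 20-1724 present during compound exposure; potency means the concentration at half of the fitted maximal effect; on the % scale 0 is the no-effect control and ±100 the full control effect; nearly all actives have a fitted effect of over 65% in size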
#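 HTRF cAMP read-out (cAMP-d2 plus anti-cAMP antibody-K in lysis buffer, 30 min RT). Before lysis, cells are exposed to compounds with […] for 30 min at 37C in DPBS containing Ca/Mg, BSA and Tween 20.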
# TRPML1 blocker: qHTS for Inhibitors of the Human Mucolipin Transient Receptor Potential 1 (TRPML1); Mucolipin-1 (Homo sapiens), Q9GZU1; activity change, negative = inhibition, % (test concentration not listed); TRPML1-inducible cells, Ca2+ dye fluorescence, FDSS; active compounds read low; inhibition of EC80 agonist-evoked calcium signal; 390,000 tested, 0.02% active; AID 624415, 2012; in the data active means activity change below about -50%; inconclusive means about -30% to -50%; inactive means above about -30%;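 further: stimulus is agonist 54-4 at its EC80 concentration; on the % scale 0 is the no-effect control and ±100 the full control effect; compound concentration not given in the record; the text of the record puts the active cut at -80%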
# Target sequence (Q9GZU1 whole entry, looked up): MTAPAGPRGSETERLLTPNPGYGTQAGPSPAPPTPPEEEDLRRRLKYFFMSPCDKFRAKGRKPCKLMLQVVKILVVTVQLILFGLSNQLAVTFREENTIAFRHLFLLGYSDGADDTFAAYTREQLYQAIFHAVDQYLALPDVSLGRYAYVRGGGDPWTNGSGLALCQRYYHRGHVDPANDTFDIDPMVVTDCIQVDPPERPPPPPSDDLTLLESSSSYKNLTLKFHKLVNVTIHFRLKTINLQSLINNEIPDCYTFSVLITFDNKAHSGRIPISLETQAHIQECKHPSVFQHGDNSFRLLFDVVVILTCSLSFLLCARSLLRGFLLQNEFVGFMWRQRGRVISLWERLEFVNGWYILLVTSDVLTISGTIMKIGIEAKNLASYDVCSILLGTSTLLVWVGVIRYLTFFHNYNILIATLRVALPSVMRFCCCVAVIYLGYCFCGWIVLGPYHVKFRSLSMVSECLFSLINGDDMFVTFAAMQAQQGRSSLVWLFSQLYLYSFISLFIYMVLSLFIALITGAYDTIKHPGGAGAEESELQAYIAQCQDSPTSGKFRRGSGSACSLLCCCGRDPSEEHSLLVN
#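 Tet-induced TRPML1-DL cells loaded with Ca8 no-wash calcium dye were read kinetically on FDSS. Compound addition was followed by EC80 agonist 54-4 (4 uM final); inhibition was read over 110 s.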
# Menin MLL FP FL: qHTS Assay for Inhibitors Targeting the Menin-MLL Interaction in MLL Related Leukemias: Competition With Fluorescein Labeled MLL-derived Peptide; FP activity change, % at 61.4 µM; 290,000 tested, under 10 active; AID 1766, 2009; Fluorescence polarization, fluorescein-MLL peptide displacement from menin; inconclusive = falling polarisation curve, or a change in total fluorescence; inactive = total fluorescence flat and polarisation flat or rising; no compound was filed as active; the % refers to the polarisation; negative = inhibition;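 further: % of control where 0% means no effect; inhibitors lower the polarisation; unlabelled MLL peptide was the positive control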
# gsp ag: qHTS for Agonist of gsp, the Etiologic Mutation Responsible for Fibrous Dysplasia/McCune-Albright Syndrome: qHTS. gsp mutant cells, cAMP HTRF, 30 min; control for the full effect not named in the record. Potency, µM (highest dose often 76.9 µM), for the others: at the top dose activation (cAMP increase), actives largely listed as activators. 340,000 tested, 0.13% active. AID 624287, 2012; active = well fitted activation curve with a large enough effect; inconclusive = small, poorly fitted or top-dose-only effect, or another doubt; inactive = no such curve, though single readings can be large or run the other way; cell line not stated here;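 further: phosphodiesterase inhibitor Ro 20-1724 added with compounds to block cAMP breakdown; potency means the concentration at half of the fitted maximal effect; nearly all actives have a fitted effect of over 60% in size; about a fifth of the inactives were tested at one dose only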
#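 Cells stably selected in G418 were plated at 2000/well, grown 16-24 hr, then given compounds in DMSO with the PDE inhibitor […] (300 uM solution added) for 30 min at 37C; cAMP was read by HTRF.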
# TRPML1 ag: qHTS for Agonists of the Human Mucolipin Transient Receptor Potential 1 (TRPML1). activation, % (test concentration not listed). 410,000 tested, 0.12% active. Mucolipin-1 (Homo sapiens), Q9GZU1. AID 624414, 2012. TRPML1-expressing cells, Ca2+ dye fluorescence, FDSS; host cell line not named in the record; reference of the full effect not given here; in the data active = activation above about 50%; inconclusive = about 30% to 50%; inactive = below about 30%; further: 0% is about no effect; the text of the record puts the active cut at 80%
#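 Tet-induced TRPML1-DL cells, 1,500 per well, cultured overnight, were loaded with a no-wash Ca2+ dye for 45–90 min. Calcium fluorescence was recorded on the FDSS for 110 s after compound addition, before the EC80 agonist (4 uM 54-4) was added.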
# * hit, by the source's call; ? = inconclusive; . = no result given; & = joins results of further samples; [ ] = remark or other dose. Not a hit list; overall some 2.1% were active at least once.
SMILES,ClpP mod,gsp antagonist,TRPML1 blocker,Menin MLL FP FL,gsp ag,TRPML1 ag
Cc1ccc(C2=NN(C(=O)CSc3nccn3C)C(c3ccco3)C2)cc1 (configuration not stated),-0.6%,4%,0,3.9,6%,2.7
Cc1cc2c(NC3CCCCC3)ncnc2s1,-1.3%,-7%,1,-1.5,-1%[15.4 µM],-0.4
CN1C(=O)c2c(sc3c2CC(C)(C)SC3)N2CCN=C12,?,-18%,63,9.0,1%,-0.4
Cc1ccccc1/[N+]([O-])=C/c1ccncc1,-0.5%,-2%,13,0.3,-28%,-0.7
COC(=O)c1ccc(C)c(NC(=O)CN(c2cc(OC)ccc2OC)S(C)(=O)=O)c1,0.1%,-17%,16,1.6,-24%,0.9
CCOc1ccc(N2C(=O)CC(N3CCN(C4CCc5ccccc5C4)CC3)C2=O)cc1 (configuration not stated),-0.6%,-9%,-8,-1.6,-54%[inhibitor],-0.1
Cc1ccc(C(=O)C[n+]2cc(Br)cc(Br)c2)cc1[N+](=O)[O-],1.5%,-15%,8,-2.0,-80%[inhibitor],-0.5
Cc1cccc(N=C2NC(=O)/C(=C/c3cccnc3)S2)c1C,0.2%,-4%,-12,-11,13%,1.0
COc1ccc(N2CCN(C(=O)c3ccc(CS(=O)c4cccc(C)c4)o3)CC2)cc1 (configuration not stated),-1.2%&2.0%,-10%,-7&-10,.,17%,0.9&-1.1
O=C(Nc1ccc(S(=O)(=O)Nc2ncccn2)cc1)c1cc([N+](=O)[O-])ccc1Cl,-1.1%,-9%,15,-1.3,-10%,-0.3
N#CCSc1nnc(CNc2cccc(Cl)c2)o1,0.9%,-10%,-19,1.5,-3%,3.0
O=C(C1CCCN(S(=O)(=O)c2cccc3nsnc23)C1)N1CCN(c2cccc(Cl)c2)CC1 (configuration not stated),-1.4%,.,-5,.,.,-1.1
CC(=O)c1cccc(NC(=O)c2nc(-c3ccc(C)cc3)n3c2CCCCC3)c1,-0.7%,.,-7,.,.,3.8
O=C(CSc1nnc(COc2ccc(Cl)cc2)o1)N1CCOCC1,1.4%,4%,57,0.4,-19%,-0.6
Cc1nn(-c2ccccc2)c2c1C1(C(=O)N(C)c3ccccc31)C(C#N)=C(N)O2 (configuration not stated),-1.5%,-13%,1,1.4,-13%,0.9
CC(C)NCC(O)COc1ccc(Br)cc1 (configuration not stated),.,-6%,-16,0.5,-2%[15.4 µM],2.9
CCCCN(C(=O)C(C)N1C(=O)c2ccccc2C1=O)c1c(N)n(CC(C)C)c(=O)[nH]c1=O (configuration not stated),-2.6%,-14%,36,.,3%,1.8
O=C(N/N=C/c1ccc2cccc(OCc3ccccc3)c2n1)c1ccc(Br)cc1,4µM*,-1%,-12,18,0%,4.2
COc1cc(OC)cc(-c2nc3nc(C)c(CCC(=O)Nc4ccc(F)cc4F)c(C)n3n2)c1,3.8%,.,4,.,.,0.3
Nc1nc(CN2CCOCC2)cs1,3.9%,-14%,5,3.4,3%,0.9

# Sorted by heavy-atom count (ascending): 12 of the compounds above
SMILES,ClpP mod,gsp antagonist,TRPML1 blocker,Menin MLL FP FL,gsp ag,TRPML1 ag
Nc1nc(CN2CCOCC2)cs1,3.9%,-14%,5,3.4,3%,0.9
CC(C)NCC(O)COc1ccc(Br)cc1 (configuration not stated),.,-6%,-16,0.5,-2%[15.4 µM],2.9
N#CCSc1nnc(CNc2cccc(Cl)c2)o1,0.9%,-10%,-19,1.5,-3%,3.0
Cc1ccc(C(=O)C[n+]2cc(Br)cc(Br)c2)cc1[N+](=O)[O-],1.5%,-15%,8,-2.0,-80%[inhibitor],-0.5
Cc1cccc(N=C2NC(=O)/C(=C/c3cccnc3)S2)c1C,0.2%,-4%,-12,-11,13%,1.0
O=C(CSc1nnc(COc2ccc(Cl)cc2)o1)N1CCOCC1,1.4%,4%,57,0.4,-19%,-0.6
Cc1nn(-c2ccccc2)c2c1C1(C(=O)N(C)c3ccccc31)C(C#N)=C(N)O2 (configuration not stated),-1.5%,-13%,1,1.4,-13%,0.9
COC(=O)c1ccc(C)c(NC(=O)CN(c2cc(OC)ccc2OC)S(C)(=O)=O)c1,0.1%,-17%,16,1.6,-24%,0.9
COc1ccc(N2CCN(C(=O)c3ccc(CS(=O)c4cccc(C)c4)o3)CC2)cc1 (configuration not stated),-1.2%&2.0%,-10%,-7&-10,.,17%,0.9&-1.1
CCOc1ccc(N2C(=O)CC(N3CCN(C4CCc5ccccc5C4)CC3)C2=O)cc1 (configuration not stated),-0.6%,-9%,-8,-1.6,-54%[inhibitor],-0.1
O=C(C1CCCN(S(=O)(=O)c2cccc3nsnc23)C1)N1CCN(c2cccc(Cl)c2)CC1 (configuration not stated),-1.4%,.,-5,.,.,-1.1
COc1cc(OC)cc(-c2nc3nc(C)c(CCC(=O)Nc4ccc(F)cc4F)c(C)n3n2)c1,3.8%,.,4,.,.,0.3

# Carrying on.
SMILES,ClpP mod,gsp antagonist,TRPML1 blocker,Menin MLL FP FL,gsp ag,TRPML1 ag
COc1ccc(NC(=O)c2nc(-c3ccc(C)cc3)n3c2CCCCC3)c(OC)c1,-2.2%,.,4,.,.,0.3
Cc1cccc(NC(c2ccc(O)cc2)c2ccc3ccc(C)nc3c2O)n1 (configuration not stated),4.0%,-6%,-8,1.8,-11%,-0.3
COC(=O)C1=C(NC(=O)c2ccc(Br)cc2)CCS1,.,-3%,-10,-3.2,4%,0.9
COc1ccc2nc(NC(=O)CSc3nnnn3C3CCCCC3)sc2c1,-0.2%,-8%,26,1.1,-41%[inhibitor],0.5
CCOc1ccc(C(=O)CCN2CCOCC2)cc1,-1.7%,-1%,9,-0.3,22%,3.6
CC(C)NS(=O)(=O)c1ccc(CCC(=O)Nc2ccc3c(c2)OCO3)cc1,-1.2%,3%,-1,3.9,-51%[inhibitor],0.1
CCOC(=O)C(=NCC1CCCO1)NNc1cc(Cl)ccc1Cl (configuration not stated),.,-15%,22,?,-14%[15.4 µM],1.8
C[C@H](CO)N1C[C@H](C)[C@@H](CN(C)C(=O)CCCN(C)C)OCc2cn(nn2)CCCC1=O,-0.7%,.,3,.,6%,0.3
O=[N+]([O-])c1ccc(/C=N/Nc2nc(N3CCCCC3)nc(N3CCCCC3)n2)cc1,1.3%,-8%,2,1.4,-61%[inhibitor],0.8
Cc1cccc(-c2nc3cc(NC(=O)COc4ccccc4F)ccc3o2)c1,4.2%,.,-8,.,.,3.0

# Look-ups from the list:
# COC(=O)c1ccc(C)c(NC(=O)CN(c2cc(OC)ccc2OC)S(C)(=O)=O)c1 in ClpP mod reads 0.1%
# COc1ccc2nc(NC(=O)CSc3nnnn3C3CCCCC3)sc2c1 in TRPML1 ag reads 0.5

# Two entries from above, reformatted.
structure | ClpP mod | gsp antagonist | TRPML1 blocker | Menin MLL FP FL | gsp ag | TRPML1 ag
Cc1cccc(-c2nc3cc(NC(=O)COc4ccccc4F)ccc3o2)c1 | 4.2% | . | -8 | . | . | 3.0
C[C@H](CO)N1C[C@H](C)[C@@H](CN(C)C(=O)CCCN(C)C)OCc2cn(nn2)CCCC1=O | -0.7% | . | 3 | . | 6% | 0.3

# New compounds follow.
SMILES,ClpP mod,gsp antagonist,TRPML1 blocker,Menin MLL FP FL,gsp ag,TRPML1 ag
Cc1ccc(CCNC(=O)c2ccc3c(=O)n(-c4ccccc4)c(=O)[nH]c3c2)cc1,-5.0%,.,-17,.,.,-1.1
CCCN(Cc1ccccc1)C(=S)Nc1ccc(C(C)=O)cc1,.,-7%,6,1.9,-22%,-0.5
Cn1nnc2cc(C(=O)Nc3cccnc3)ccc21,-0.2%,-2%,10,-1.3,-6%,-0.7
Cc1c(C(=O)N(C)C)sc2c1c(=O)n(-c1ccc(Cl)cc1)c(=O)n2CC(=O)C(C)(C)C,-0.2%,.,?,.,.,0.8
COc1cc(C2=Nc3c(c(C)nn3-c3ccccc3)P(=O)(N3CCOCC3)O2)cc(OC)c1OC (configuration not stated),-3.0%,3%,27,?,-50%,-0.8
CC(C)(C)NCC(O)Cn1cc(C=O)c2ccccc21 (configuration not stated),-1.9%,-6%,30,1.3,7%,0.3
CCOc1cccc(CN2CCCC(N3CCc4ccccc4C3)C2)c1O (configuration not stated),.,3%,4,-1.8,-5%,-0.6
O=C(NNC(=O)c1cccnc1)c1ccncc1,.,8%,0,1.8,-25%,-0.3
O=[N+]([O-])c1ccc(O)c(/C=N/NC(=S)Nc2ccc(Cl)cc2Cl)c1,.,0%,7,12,1%[15.4 µM],1.2
O=C(CN1CSCC1=O)N1CCN(S(=O)(=O)c2cccc(F)c2)CC1,-2.0%,9%,16,.,-2%,0.2
CN(Cc1ccccc1)C(=O)COc1ccc(N(C)S(=O)(=O)c2ccc(F)cc2)cc1,-0.5%,-2%,-7,0.0,-7%,0.9
O=C(c1ccc(Cl)cc1)N(Cc1cccs1)C1CCS(=O)(=O)C1 (configuration not stated),-4.8%,3%,8,0.0,-38%,-0.1
Cc1cc(C)c2nc(-c3cccnc3)cc(C(=O)NC(C)c3cnn(C)c3C)c2c1 (configuration not stated),-5.1%,-7%,4,6.2,-7%[15.4 µM],-0.1
Cc1ccc(CCN2CC(C(=O)NCCC(C)C)CC2=O)cc1 (configuration not stated),.,3%,12,0.0,?,0.5
O=c1cc(CCl)[nH]c2nc3ccccc3n12,3.5%,-3%,-8,0.1,28%,0.1
CCCCCCCCCCOC(=O)Cn1c(COc2ccc(C)cc2)[n+](C)c2ccccc21,.,10%,16,-10,13%,0.0
Cc1ccc(-c2noc(-c3cccnc3NCc3ccco3)n2)cc1,3.6%,.,-24,.,.,-0.8
COC(=O)C1CCN(c2ccc(Cl)nn2)CC1,.,0%,-12,1.9,0%,0.1
Cc1cccc2cncc(OCc3nnc(SC(F)F)n3C)c12,.,8%,-20,0.2,20%,0.3
CCN(CC)CCN(Cc1cc2cc3c(cc2[nH]c1=O)OCO3)C(=S)NCC(C)C,4.6%,1%,0,1.5,10%,-0.2
COc1ccc(C(=O)Nc2ccc(NC(=O)c3cccs3)cc2)cc1[N+](=O)[O-],-5.2%,3%,5,-1.9,11%,0.2
